HIV Env fusion: inhibitors of HIV-1 Env-driven cell-cell fusion, primary screen, HeLa-JRFL effector, CEM21 target cells, luciferase. inhibition, % at 12.3 µM. 360,000 compounds, 1.1% hits;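 active means mean replicate inhibition score of at least 50 and every replicate individually at or above 50; inconclusive means only one of the two criteria met; inactive means mean below 50 and not all replicates reaching 50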;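 further: 0% = plate neutral controls and 100% = maraviroc near 300 nM; one replicate is shown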
CSC inhib: cancer stem cell viability inhibitors, primary screen, luminescence. cancer stem cell-like cells viability. inhibition, % at 7.5 µM. 300,000 compounds, 1.1% hits. AID 2717, 2010;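 active means mean at 75% or more and at least half the replicates too; inconclusive means mean and replicates disagree; tested in HMLE shEcad cells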;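 further: 0% = median of negative and 100% = median of positive control wells; the first replicate is given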
Yeast UUG start: modulators of yeast start codon fidelity, primary screen, whole organism, S. cerevisiae, single point, plate reader; S. cerevisiae UUG-firefly luciferase reporter, luminescence/redox ratio; activity score, % at 18.7 µM; 350,000 compounds, 0.13% hits; AID 602363, 2012;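 active means replicate mean at a twofold rise or more, about +100% in these data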;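 further: firefly luciferase made from a UUG start codon reports start codon fidelity; reporter light over untreated wells divided by growth signal over untreated wells; some hits fall short of that in this replicate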
MT1-MMP act inh: blockers of MT1-MMP proenzyme processing, primary screen, HT1080 RFP-PRO-GFP cells, GFP/RFP fluorescence. Matrix metalloproteinase-14 (Homo sapiens), P50281. GFP/RFP ratio fluorescence, overnight; percent of plate control window, DMSO zero. GFP/RFP ratio change, % at 20 µM. 360,000 compounds, 0.061% hits. AID 651647, 2012;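 active means GFP/RFP ratio change of at least 30% with cell ATP level not reduced by more than half and red fluorescence within 50% of control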; further: strong numbers were not always called active
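Assay system – RFP-PRO-GFP reporter HT1080 cells · Compound dosing – single dose of 20 µM compound, 1% DMSO final · Incubation – overnight compound exposure at 37 °C · Measure – GFP/RFP fluorescence ratio · Benchmarks – DMSO wells and RFP-L50D-GFP cells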
PABP polyA inh: PABP poly(A) RNA binding inhibitors, primary screen, biochemical, fluorescence polarization, uHTS; Polyadenylate-binding protein 1 (Homo sapiens), P11940; inhibition, % at 35 µM; 290,000 compounds, 1% hits; AID 2014, 2009;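 active means 50% or more with normal probe brightness, or confirmed in later tests; inconclusive means above 50% with abnormal brightness, or retests that disagree; inactive means below 50% or failed in later tests; about a fifth of its hits are not listed in these tables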;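 further: calls also rest on retests at 20 µM and on dose response follow-up; controls were probe without protein and protein plus probe with vehicle; some compounds called inactive have numbers as strong as hits; many hits fall short of the cut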
Target sequence (P11940 whole entry, looked up): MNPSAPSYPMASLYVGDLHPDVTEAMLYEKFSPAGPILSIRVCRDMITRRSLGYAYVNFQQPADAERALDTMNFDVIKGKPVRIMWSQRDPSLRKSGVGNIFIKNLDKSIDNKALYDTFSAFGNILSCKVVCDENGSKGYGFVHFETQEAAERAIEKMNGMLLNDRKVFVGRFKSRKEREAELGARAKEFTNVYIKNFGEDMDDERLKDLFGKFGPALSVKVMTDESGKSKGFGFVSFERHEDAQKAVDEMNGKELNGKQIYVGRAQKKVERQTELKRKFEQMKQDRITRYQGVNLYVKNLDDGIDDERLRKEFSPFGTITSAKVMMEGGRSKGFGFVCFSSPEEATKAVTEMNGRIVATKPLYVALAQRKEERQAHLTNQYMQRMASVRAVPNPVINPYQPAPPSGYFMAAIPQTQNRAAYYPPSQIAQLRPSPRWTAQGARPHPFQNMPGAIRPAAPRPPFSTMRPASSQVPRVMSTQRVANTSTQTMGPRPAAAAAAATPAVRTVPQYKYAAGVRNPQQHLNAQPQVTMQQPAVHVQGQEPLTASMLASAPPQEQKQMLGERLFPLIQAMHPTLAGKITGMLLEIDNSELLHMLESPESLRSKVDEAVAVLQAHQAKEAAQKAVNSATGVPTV
eIF4H FP inh: human eIF4H binding inhibitors, primary screen, translation initiation inhibitor project, biochemical, uHTS, fluorescence polarization. inhibition, % at 35 µM. eIF4H fluorescence polarization binding assay. 290,000 compounds, 0.94% hits. Eukaryotic translation initiation factor 4H (Homo sapiens), Q15056. AID 2012, 2009;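 active means 50% or more with normal probe brightness, or confirmed in later tests; inconclusive means above 50% with abnormal brightness, or retests that disagree; inactive means below 50% or failed in later tests; about a fifth of its hits are not listed in these tables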;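 further: calls also rest on retests at 20 µM and on dose response follow-up; 0% = protein and probe with vehicle and 100% = probe without protein; strong numbers were not always called active; many hits fall short of the cut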
Rce1 inhib: yeast Rce1p protease inhibitors, primary screen, biochemical, fluorescence, cell-free homogeneous; CAAX prenyl protease 2 (Saccharomyces cerevisiae (strain ATCC 204508 / S288c)), Q03530; AID 2563, 2010; calls only; 290,000 compounds, 0.27% hits; yeast membranes, quenched prenylated peptide cleavage fluorescence;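 active means fall in fluorescence gain of 50% or more versus controls, with final raw signal at or below 3038400; inconclusive means same 50% fall but final raw signal above 3038400; inactive means fall in fluorescence gain under 50%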;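 further: plate controls were neutral control wells for no effect and wells lacking membranes for full effect; tested at 10 µM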
eIF4H FP inh retest: further read-out of eIF4H FP inh, marked with its call; inhibition, %; compound at 20 µM; confirmation average;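 mean of two retest wells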
PABP polyA inh retest: recorded beside PABP polyA inh, whose call it bears; inhibition, %; compound at 20 µM; confirmation repeats;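 mean of two retest wells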
MT1-MMP act inh RFP: recorded beside MT1-MMP act inh, whose call it bears; RFP signal change, %; measured here: RFP expression control read;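 0 = vehicle wells; hits needed this value within 50% of zero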
* = called active by the depositor; i = inactive; u = inconclusive; x = no result given; & = joins results of further samples.

SMILES	HIV Env fusion	CSC inhib	Yeast UUG start	MT1-MMP act inh	MT1-MMP act inh RFP	PABP polyA inh	eIF4H FP inh	Rce1 inhib	others
O=C(c1ccccc1F)N1CCN(c2ccc([N+](=O)[O-])c3ncccc23)CC1	12	0	x	5	-3	5	2	i
Cc1cc(Br)cc(Br)c1OCC(=O)NNC(=O)Nc1ccccc1	15	-5	3	4	-2	x	x	i
CCc1nnc(NS(=O)(=O)c2ccc(NC(=O)c3cc(Cl)ccc3Cl)cc2)s1	0	-7	x	5	2	1	4	i
Fc1ccc(-c2nc3c(Cl)cc(C(F)(F)F)cn3c2Cc2cccc(F)c2)cc1	6	x	-15	0	4	x	x	x
O=C(NCc1nc2ccccc2[nH]1)C1=C[C@@H](c2ccc(Br)cc2)C[C@@H](OCCCCO)O1	-27	-9	-25	5	-2	6	-2	i
OCCN1CCN(CC(O)COc2ccc3ccccc3c2)CC1 (stereo not given)	x	x	-3&1	1&3	4&5	20	4	i
CC1(/[N+]([O-])=C\c2ccccc2F)CCCCC1=O (stereo not given)	-36	0	x	6	5	12	12	i
O=C(NCc1ccccc1)c1nnc(CS(=O)(=O)c2ccccc2)o1	-21	-7	-17	3	9	-5	-15	i
CC1CCN(C(=O)c2[nH]cnc2C(=O)NCC(=O)OC(C)(C)C)CC1	-10	-3	-13	2	5	1	6	i
NC(Cc1ccccc1)c1csc(Nc2nncc3ccccc23)n1 (stereo not given)	-113	x	-11	-2	-3	x	x	x
Cc1c(C)n(CC(O)CN2CCCCC2)c2ccccc12 (stereo not given)	-16	4	-11	4	-3	2	14	i
CNC(=O)Cn1c(=O)n(C)c2ccccc21	x	-9	x	-2	1	10	0	i
CC(C)CN(CC(C)C)C(=O)Nc1ccc(F)cc1F	4	-10	-24	-3	1	4	-9	i
Cc1ccc(C(c2nnnn2CS(=O)(=O)c2ccc(C)cc2)N2CCC(C(N)=O)CC2)cc1 (stereo not given)	-48	11	16	1	3	1	-2	i
CCCCCCC(=O)Oc1ccc(N2C(=O)CCC2=O)cc1	5	x	x	3	7	5	2	i
CN(Cc1cc2ccccc2[nH]c1=O)C(=O)C1CCCCC1	x	-1	0	7	1	-1	7	i
Cn1c(=O)c(=O)n(C)c2cc(S(=O)(=O)N3CCCCCC3)ccc21	-6	-5	-4	3	1	-8	6	i
Cc1ccc(CNC(=O)CN(Cc2ccccc2)S(C)(=O)=O)cc1	-66	-5	-7	-5	-3	-5	0	i
Cn1c(SCC(=O)Nc2ccccc2Cl)nnc1C1CC1	0	0	-7	-1	0	8	-17	i
CS(=O)(=O)c1ccc2nc(NC(=O)c3ccc(Cl)nc3)sc2c1	-9	0	x	-2	-1	66	2	i	eIF4H FP inh retest=8;PABP polyA inh retest=-2
COCCN1CN=C(Nc2nc3ccccc3o2)NC1	x	-12	-20	3	4	-12	-2	i
COc1ccc(C2SCCN2S(=O)(=O)c2ccccc2)cc1 (stereo not given)	-4	x	x	4	0	8	-4	i
Cc1c(-n2c(=S)[nH]c3ccccc3c2=O)c(=O)n(-c2ccccc2)n1C	10	7	2	1	2	6	6	i
CCOC(=O)Cc1csc(NC(=O)CSc2nc3sc(C(=O)O)c(C)c3c(=O)[nH]2)n1	-26	x	-22	-3	-2	16	-4	i
Cc1ccc(S(=O)(=O)N2CCCC(C(=O)N3CCN(c4ccccc4)CC3)C2)cc1 (stereo not given)	24	-5	14	1	-11	-7	-10	i
O=C(O)CCSc1nc(C(F)(F)F)cc(=O)n1-c1ccccc1	-6	-3	-24	7	11	-5	-4	i
Cc1ccc(S(=O)(=O)Nc2nc3ccccc3s2)cc1[N+](=O)[O-]	8	-9	-5	-7	0	11	3	i
CC(C)Sc1nc2ccsc2c(=O)[nH]1	4	x	x	-4	-5	2	2	i
Cn1c(Sc2nc3ccccc3n2C)nc2ccccc21	-109	-8	x	-2	-1	3	-10	i
O=C(Nc1ccccc1F)C1C2C=CC3(O2)C1C(=O)N(c1cccnc1)C3C(=O)NC1CCCCC1 (stereo not given)	-181	-4	x	2	5	5	8	i
CCSc1ccccc1C(=O)N1CCC2(CC1)CC(=O)c1ccccc1O2	x	-8	x	-4	-4	x	x	i
Cc1ccc(/C=N/Nc2nncn2N)cc1	0	-4	1	12	2	1	-2	i
COc1ccc(NC(=O)CSc2nc(-c3ccc(C)cc3)cc(C(F)(F)F)c2C#N)cc1	2	-15	x	-8	2	-6	-8	i
COc1cc(NC(=O)C2CCCN(S(=O)(=O)c3cnc[nH]3)C2)cc(OC)c1 (stereo not given)	10	-1	-11	0	6	8	5	i
Cc1ccc(S(=O)(=O)c2cc3ccccc3oc2=O)cc1	40	2	x	0	-7	17	5	i
COc1ccc(/C=N/Nc2ccccn2)cc1O	-61	12	x	5	-1	1	-9	i
O=C(O)C1CCCCC1C(=O)Nc1ccc2c(c1)CCC2 (stereo not given)	x	-3	-12	3	3	6	-12	i
CCc1ccc(NC(=O)CC2C(=O)NCCN2C(=O)c2ccccc2OC)cc1 (stereo not given)	22	1	-9	-4	-1	-8	0	i
CCCCCCCCCCCCCCCC[N+](C)(C)CCN(Cc1ccc(OC)cc1)c1ncccn1	x	117*	-83	-23	-34	x	x	x
Cc1cccc([C@@H]2[C@@H]3C(=O)N(Cc4ccccc4)C(=O)[C@@H]3[C@]3(C)C(=O)N(c4ccc(C(F)(F)F)cc4)C(=O)N23)c1	x	8	-21	6	-1	-4	-1	i
Cc1ccc2c(c1)NC(=O)c1cc([N+](=O)[O-])ccc1O2	34	8	x	-1	3	-3	-1	i
COc1ccc(CCNC(=O)Cn2nc([N+](=O)[O-])c(Br)c2C)cc1OC	3	7	-10	-1	2	-6	5	i
CC(=O)Nc1ccc(NC(=O)CSc2nc3nc(C)cc(C)c3c(=O)[nH]2)cc1	-4	2	-8	2	4	8	-11	i
O=C(O)c1cc2nc(-c3ccccc3)cc(-c3ccccc3)n2n1	-38	3	x	0	-2	11	6	i
CCN(CC)CCSc1nnc(Nc2ccccc2)n1-c1ccccc1	-4	-21	-1	-3	2	6	5	i
O=C(O)CCOc1ccc2c(c1)OCCO2	x	-10	-13	4	2	2	-8	i
O=C(Nc1ncccn1)c1ccc(C(F)(F)F)cc1	-2	-2	x	0	1	-3	-8	i
CC1(C(=O)NS(=O)(=O)c2ccc(Cl)cc2)CCN1C(=O)Cc1cc(F)ccc1F (stereo not given)	-8	x	-8	-3	1	x	x	x
Cc1cc(-c2ccccc2)nc2cc(C(=O)NCc3ccco3)nn12	-92	10	-3	9	2	4	36	i
CC(C)(C)c1ccc(C(O)c2ncc(-c3cccc(F)c3)[nH]2)cc1 (stereo not given)	17	x	-11	0	-2	x	x	x
COCCN(C(=S)Nc1ccccc1OC)C1CCN(C(C)=O)CC1	36	-14	x	6	8	4	6	i
COc1ccc(C2NC(c3ccc(OC)cc3OC)C(C)C(=O)C2C)c(OC)c1 (stereo not given)	9	-1	x	-4	-1	-8	1	i
O=C(CSc1nnc(-c2cccnc2)o1)c1cc2ccccc2oc1=O	x	-4	-21	-14	1	7	10	i
O=C(CC1C(=O)NCCN1C(=O)Nc1ccccc1)Nc1ccc2c(c1)OCCO2 (stereo not given)	-119	-4	-8	1	3	9	5	i
COc1ccc2nc(SCC(=O)NC(C)c3ccccc3)[nH]c2c1 (stereo not given)	x	-2	2	-3	-6	x	x	x
O=C(Nc1cccc(S(=O)(=O)N2CCOCC2)c1)C1=NN(c2ccccc2)C(=O)CC1	-7	10	-7	6	0	11	-9	i
O=C(Cn1cc(C(F)(F)F)cc(Cl)c1=O)Nc1cc(S(=O)(=O)N2CCOCC2)ccc1Cl	9	-8	-8	1	2	29	-13	i
COc1ccccc1-c1nnc(Nc2nc3c(OC)cccc3s2)o1	-71	67	-14	14	-5	0	9	i
O=C(Nc1ccc2c(c1)S(=O)(=O)N=C1CCCCCN12)c1ccccc1Cl	8	-19	x	1	4	0	3	i
O=C(NCc1cccs1)c1ccccc1C(=O)NCc1cccs1	1	-15	-3	-3	3	-6	5	i
Carrying on:
SMILES	HIV Env fusion	CSC inhib	Yeast UUG start	MT1-MMP act inh	MT1-MMP act inh RFP	PABP polyA inh	eIF4H FP inh	Rce1 inhib	others
O=C(Nc1sc2c(c1C(=O)O)CCCCC2)c1ccccc1	3	25	x	-7	-2	4	0	i
Cc1ccc(C(c2ccc(C)o2)c2cccc([N+](=O)[O-])c2O)o1	17	17	-2	1	1	15	15	i
CCSc1cc(N2CCCC2)nc(-c2ccccc2)n1	x	30	-14	-1	3	-6	-1	i
CC(c1ccco1)N(C(=O)c1ccc(C(F)(F)F)cc1)c1ccccn1 (stereo not given)	-18	-8	-8	4	-2	u	30	i
O=C(Nc1ccc(Oc2cccnc2)cc1)C1CCN(Cc2cc(Cl)ccc2O)CC1	10	20	0	6	-28	3	-6	i
O=C(Nc1ccnn1C1CCN(Cc2ccc(O)c(Cl)c2)CC1)C1CCCC1	-11	6	-10	-5	-7	3	-3	i
CC1CCN(S(=O)(=O)c2ccc3c(c2)CC(C)N3C(=O)C2CCC2)CC1 (stereo not given)	-14	x	-2	-2	-9	1	-15	i
CC(C)(C)C(=O)/C(=C/c1ccc(Cl)cc1)n1cncn1	-75	30	-4	-17	-29	1	-5	i
COCCN(C(=O)c1csnn1)C(C(=O)NC1CCCC1)c1ccc(C)cc1 (stereo not given)	3	-16	-13	-2	-1	-2	-4	i
CC1(Oc2ccc(-n3ccnc3)cc2)CCN(Cc2cccn2-c2nccs2)C1 (stereo not given)	15	x	-15	1	3	x	x	x
CC(=O)NCc1ccc2[nH]c(C)cc2c1	-7	-15	-14	5	6	-2	-10	i
Cc1ccc(S(=O)(=O)Oc2ccccc2/C=C2\SC(=O)NC2=O)cc1	16	14	x	-2	0	0	-6	i
CN(C)C1N(C(=O)c2ccccc2)N=C2c3ccccc3S(=O)(=O)N21 (stereo not given)	-5	-3	4	1	-1	10	-4	i
CC(CCCN(C)C)C(Cc1ccccc1)c1ccccc1 (stereo not given)	6	21	-22	-3	-1	x	x	i
Cc1cccc(N2CCN(CC(O)COc3ccccc3)CC2)c1 (stereo not given)	10	x	-13	2	3	x	x	x
CC(O)CNc1ccc(-c2nn(C)c(=O)c3ccccc23)cc1[N+](=O)[O-] (stereo not given)	1	1	x	8	9	-4	-3	i
CCOc1cc(C(=O)N2CCC3(CC2)NCCc2[nH]cnc23)cc(OCC)c1OCC	-9	-5	-16	1	3	x	x	i
Cc1ccc(CC(=O)Nc2nnc(-c3ccc(F)cc3)o2)c(C)c1	x	11	-9	2	3	1	-6	i
COc1cccc(NC(=O)Nc2c(C)n(C)n(-c3ccccc3)c2=O)c1	16	9	-27	2	0	-2	5	x

Some of the compounds tested (hit frequency here may not be typical).
